Bioassay records (PubChem BioAssay)
gsp agonist = activates gsp, the McCune-Albright syndrome mutation | gsp mutant cells, cAMP HTRF, 30 min; control for the full effect not named in the record | Potency, µM (highest dose often 76.9 µM), for inactives: top-dose activation (cAMP increase), hits mostly activators | AID 624287 | 340,000 compounds, 0.13% hits; active = well fitted activation curve with a large enough effect; inconclusive = small, poorly fitted or top-dose-only effect, or another doubt; inactive = no such curve, though single readings can be large or run the other way; cell line not stated here;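 note: phosphodiesterase inhibitor Ro 20-1724 added with compounds to block cAMP breakdown; potency is the fitted concentration of half-maximal effect; nearly all actives have a fitted effect of over 60% in size; about a fifth of the inactives were tested at one dose only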
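Cells in DMEM/10% FBS with G418 were pretreated with compounds in DMSO plus […] (300 uM stock) for 30 min at 37C. cAMP was measured by HTRF (cAMP-d2 plus anti-cAMP antibody-K) after 30 min at room temperature.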
ClpP mod = qHTS Assay for Activators of ClpP. ATP-dependent Clp protease proteolytic subunit (Bacillus subtilis (strain 168)), P80244. purified B. subtilis ClpP, FRET peptide cleavage, 20 min. Potency, µM (series often up to 57.5 µM), inactives show at the top dose activity change, negative = active. 340,000 compounds, 1.9% hits. AID 651965, 2013; active = well fitted falling curve with a large enough effect; inconclusive = small, poorly fitted or top-dose-only effect; inactive = no such curve, though single readings can be large or run the other way; note: potency is the fitted concentration of half-maximal effect; the source files actives as falling curves though it sought activators and does not explain the sign; nearly all actives have a fitted effect of over 65% in size; many hits overshoot -100%
Target sequence (P80244 whole entry, looked up): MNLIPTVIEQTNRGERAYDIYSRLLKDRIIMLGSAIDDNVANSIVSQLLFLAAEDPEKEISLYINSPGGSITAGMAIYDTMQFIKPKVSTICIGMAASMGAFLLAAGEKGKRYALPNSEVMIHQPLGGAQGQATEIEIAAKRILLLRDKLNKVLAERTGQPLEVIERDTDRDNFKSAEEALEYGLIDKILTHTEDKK
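FRET quenching reversal measured ClpP activation: 10 microg/mL B. subtilis ClpP at pH 8 with the FRET-FV decapeptide, read at 430 nm after 320 nm excitation. The 20-min minus 0-min signal was scaled between DMSO/no-enzyme wells and ADEP (5.8 microM final).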
Menin MLL FP FL = menin-MLL binding inhibition, fluorescein peptide; Fluorescence polarization, fluorescein-MLL peptide displacement from menin; FP activity change, % at 61.4 µM; 290,000 tested, under 10 active; AID 1766; inconclusive = falling polarisation curve, or a change in total fluorescence; inactive = total fluorescence flat and polarisation flat or rising; no compound was filed as active; the % refers to the polarisation; negative = inhibition;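 note: % of control where 0% means no effect; inhibitors lower the polarisation; unlabelled MLL peptide was the positive control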
gsp antagonist = gsp mutant antagonism; gsp-mutant cells, cAMP HTRF, 30 min; control for the full effect not named in the record; Potency, µM (doses to about 76.9 µM), for inactives: at the top dose activity change, negative = inhibition, usual class: inhibitors; 340,000 compounds, 0.4% hits; active = falling curve of any shape with a large fitted effect; inconclusive = falling curve, mostly with a smaller effect; inactive = flat or rising curve; cell line not stated here;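 note: intracellular cAMP measured with PDE inhibitor Ro 20-1724 present during compound exposure; potency is the fitted concentration of half-maximal effect; % is set by controls: 0 for no effect and ±100 for the full control effect; nearly all actives have a fitted effect of over 65% in size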
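Measurement of cellular cAMP by homogeneous time-resolved fluorescence following a 30 min compound exposure at 37C. The PDE inhibitor […] was present throughout; the assay buffer was DPBS with 0.05% BSA and 0.005% Tween 20.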
TRPV1 PAM = human TRPV1 potentiation | potentiation, % at 8.33 µM | TRPV1-expressing cells, Fluo-8 calcium influx, capsaicin EC20 potentiation; host cell line not named in the record; control for the full effect not named in the record | AID 540277 | 320,000 compounds, 0.02% hits; active means potentiation above 80%; inconclusive means 30% to 80%; inactive means below 30%; note: 0% is about no effect
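Fluo-8 calcium influx in TRPV1-expressing cells, kinetic read (ex 480/em 520 nm). Compound added and read 3 min for agonist activity, followed by capsaicin at EC20 final and 2 min further read for enhancement.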
Sfp PPTase inh = inhibitors of Bacillus subtilis Sfp phosphopantetheinyl transferase. Potency, µM, without a hit: max response, negative = inhibition, most hits filed as inhibitors. 310,000 compounds, 3.5% hits. Q9F4F7. Biochemical Sfp PPTase activity, qHTS; active = well fitted inhibition curve with a large enough effect; inconclusive = small, poorly fitted or top-dose-only effect, or another doubt; inactive = no such curve, though single readings can be large or run the other way;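 note: the enzyme is Sfp with the accession as filed and its product quenches rhodamine fluorescence; potency is the fitted concentration of half-maximal effect; 0% = enzyme reaction without inhibitor and -100% = no enzyme wells; top concentration of the series not given in the record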
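After 15 min at room temperature with compound, 15 nM Sfp received 5 uM rhodamine-CoA plus 12.5 uM BHQ-2-ybbR (50 mM Hepes pH 7.6, 10 mM MgCl2). Rate came from the fluorescence difference over 30 min, ex 525/em 598 nm.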
D2 potentiator = human D2 receptor positive allosteric modulation; potentiation, % (no concentration beside the values); 360,000 compounds, 0.23% hits; DiscoveRx D2 beta-arrestin cells, luminescence, 90 min; 100% = 57 uM dopamine signal; active = potentiation of 50% or more; inconclusive = 30% to 50%; inactive = 30% or less;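 note: compound concentration not given in the record; tested on top of an EC20 dose of dopamine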
Target sequence (P14416 whole entry, looked up): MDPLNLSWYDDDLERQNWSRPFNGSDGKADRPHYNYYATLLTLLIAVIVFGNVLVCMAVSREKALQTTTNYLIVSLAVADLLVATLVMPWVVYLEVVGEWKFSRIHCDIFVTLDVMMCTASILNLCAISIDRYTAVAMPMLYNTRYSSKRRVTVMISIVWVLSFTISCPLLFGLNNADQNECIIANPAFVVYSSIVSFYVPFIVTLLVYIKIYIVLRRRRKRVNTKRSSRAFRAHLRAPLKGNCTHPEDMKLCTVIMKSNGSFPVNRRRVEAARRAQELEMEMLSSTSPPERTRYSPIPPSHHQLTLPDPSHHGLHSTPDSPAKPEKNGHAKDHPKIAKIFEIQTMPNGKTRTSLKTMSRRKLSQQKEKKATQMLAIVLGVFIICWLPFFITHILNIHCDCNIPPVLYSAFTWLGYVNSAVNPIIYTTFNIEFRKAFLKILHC
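D2 cells co-treated with compound plus 50 nM dopamine (EC20) for 90 min at 37 deg C to detect potentiation. Beta-arrestin recruitment was read as enzyme-fragment luminescence after 1 h at ambient temperature. Full response was set by 57 uM dopamine.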
* hit, by the source's call; ? = inconclusive; . = not tested or not shown; & = joins results of further samples; [ ] = remark or other dose. Hits appear at their usual frequency; any-hit rate near 5.1%.

The line under a structure holds: Menin MLL FP FL, D2 potentiator, gsp antagonist, TRPV1 PAM, gsp agonist, Sfp PPTase inh, ClpP mod
CN(C)S(=O)(=O)c1ccc(Nc2ccc(-c3ccc4c(c3)OCCO4)nn2)cc1
  2.8, -9, -20%, -5, 2%, 0%, -2.7%
COc1ccc(S(=O)(=O)N2CCOCC2)cc1OC
  3.7, -15, 14%, 5, 4%, -1%, 0.4%
c1ccc(-c2ccnc3ncnn23)nc1
  0.7, 0, 3%, -7, ?, -16%, -13%
Cc1ccc(OC(C)C(=O)Nc2ccc(S(=O)(=O)Nc3cc(C)on3)cc2)cc1 (stereo not given)
  -1.3, 3, -3%, 11, -2%, 19%, 0.2%
O=C(COc1cccc(C(F)(F)F)c1)Nc1nnc(C2CC2)s1
  ., -2, -6%, ., -1%[15.4 µM], ., 2.3%
Cc1cc(NC(=O)NC(=O)c2ccccc2NC(=O)CN(C)C)ccc1Oc1ncc(Br)cn1
  ., -13, 4%, ., 2%, ., 1.5%
CCCC1=C(C(=O)OCC)C(c2ccc(NC(C)=O)cc2)NC(=O)N1 (stereo not given)
  0.1, 0, 5%, 3, ?, 19%, -6.9%
CCOC(=O)CNC(=O)CNC(=O)c1ccc(OCC(C)C)cc1
  -2.1, -19, 7%, -1, -12%, 15%, 0.4%
O=C(CCN1C(=O)/C(=C/c2ccccc2Cl)SC1=S)N1CCOCC1
  -2.8, 0, -8%, 7, -19%, 9%, 1.4%
O=C(Nc1ccc2oc(-c3ccncc3)nc2c1)c1ccccc1F
  4.1, -7, 41%[activator], 5, 4%, 9%, 111%
CCCOc1ccc(C(=O)Nc2ccc(S(=O)(=O)N3CCN(C)CC3)cc2)cc1
  -2.3, 3, -10%, 1, -10%[15.4 µM], 4%, -1.1%
COc1ccc(S(=O)(=O)NCC2CCCN(C(=O)CN3CCCCC3)C2)cc1 (stereo not given)
  0.1, -10, -13%, 10, 7%, 13%, -4.1%
COCCn1c(SCC(=O)OC(C)C)nnc1-c1ccccc1
  6.9, -1, 12%, 9, 2%, 12%, 0.5%
O=C(NCCc1nc2ccccc2[nH]1)c1ccc(F)cc1
  -1.7, -16, 13%, 3, -10%, 16%, -1.0%
COc1cccc(NC(=O)N(C)C[C@@H]2OCc3cnnn3CCCC(=O)N([C@H](C)CO)C[C@@H]2C)c1
  ., 4, ., ., -26%, ., -1.4%
NC(=O)c1ccc(NC(=O)CN2CCN(Cc3ccccc3)CC2)cc1
  0.9, -11, 7%, 6, -20%, 2%, -1.3%
Cc1cc(=O)oc2cc(OC(=O)c3nn(C(C)C)c(=O)c4ccccc34)ccc12
  1.5, -9, -31%, 1, 14%, 6%, -12%
COc1ccc(-c2nnc3sc(C4CCCCC4)nn23)cc1OC
  0.1, -3, 4%, -13, 8%, 0%, 0.7%
Cc1nc2sccn2c(=O)c1S(=O)(=O)Nc1ccc(N2CCN(S(C)(=O)=O)CC2)cc1
  -14, 3, -2%, 1, -5%[15.4 µM], 2%, -4.1%
CN1C(=O)C(C)(C)c2cc(S(=O)(=O)N3CCCC(C(=O)NCc4ccc(Cl)cc4)C3)ccc21 (stereo not given)
  -0.1, -1, -27%, -15, -16%, 9%, 1.0%
CN(C(=O)CSc1nc2ccccc2c(=O)n1-c1ccc(F)cc1F)C1CCS(=O)(=O)C1 (stereo not given)
  ., -6, -15%, ., 25%[15.4 µM], ., 0.6%
CN1CCC(=NNC(=O)C(=O)Nc2ccccc2F)CC1
  -1.7, -6, 4%, 4, 0%, 18%, .
Cc1cccc(NC(=O)Cn2nnc(-c3ccc(CN4CCCC4)cc3)n2)c1C
  -2.1, -32, 1%, 22, -19%, 2%, -1.2%
COc1ccc(/C(O)=C2/C(=O)C(=O)N(c3ncccn3)C2c2ccc(OC)cc2)cc1 (stereo not given)
  2.8, -5, 2%, 5, 17%, 8%, 1.4%
COc1ccc(-c2c(C)nn3c(N4CCC(C(=O)N5CCCCC5)CC4)cc(C)nc23)cc1OC
  0.3, -4, 0%, -20, -4%, 8%, -1.8%
Cc1ccccc1CSCCNC(=O)c1ccccc1
  -1.8, -9, -1%, -19, -16%, 4%, 1.1%
COc1cccc(NC(=O)CCCn2c(=O)[nH]c3ccccc3c2=O)c1
  -0.9, -10, -2%, 0, ?, 2%, -0.2%
CCOc1ccccc1N(CC(=O)Nc1cc(OC)ccc1OC)S(=O)(=O)c1ccccc1
  -1.0, -1, -19%, 3, -44%[inhibitor], 4%, 0.8%
CN(C)C(CNC(=O)CCOc1ccccc1)c1ccco1 (stereo not given)
  5.8, -8, -1%, 2, 1%, -3%, -6.5%
Cc1cc(C#N)c(SCC(N)=O)nc1-c1ccc(F)cc1
  -0.1, -3, 1%, 16, 3%[15.4 µM], 8%, .
CCOc1ccc(N(C(C)=O)C2C=CS(=O)(=O)C2)cc1 (stereo not given)
  -3.7, -4, 6%, 5, 8%, 8%, 2.8%
COC(=O)c1sc(N)c(C(=O)OC)c1COC(=O)c1c(C)noc1C
  1.5, -34, 0%, -29, -9%, -1%, -18%
Cc1occc1-c1nnc(SCC(=O)Nc2nc(C(C)(C)C)cs2)o1
  0.3, -5, ?, 3, 25%, 20%, -0.3%
CC(C)COC(=O)n1c(SCC(N)=O)nc2ccccc21
  1.9, -19, -4%, -3, -73%[inhibitor], -1%, -0.8%
CCc1nnc(NC(=O)c2cccc(S(=O)(=O)N3CC(c4ccccc4)CC3=O)c2)s1 (stereo not given)
  -1.6, -5, -13%, ?, -28%, 23%, 1.4%
Cc1ccc(/C=N/NC(=O)CSc2nnc(-c3ccc(Cl)cc3)n2-c2ccc(Cl)cc2)o1
  5.5, 84*, -4%, -1, -23%, ?, -3.2%
O=C(CCN1C(=O)NC2(CCCC2)C1=O)Nc1ccc(-c2nc3ccccc3s2)cc1
  ., -5, -9%, 2, -2%, ., 20µM*
Cc1ccc(OCCNC(=O)c2ccccc2F)cc1
  -14, -7, -11%, -19, 11%[15.4 µM], 13%, ?
COc1ccc(C2SCC(=O)N2c2ccc(C)cc2)cc1 (stereo not given)
  -3.4, -2, 2%, 7, 6%, 15%, -0.6%
O=C(Nc1ccncc1)c1ccc2c(c1)OCCO2
  1.6, 1, 6%, -4, 8%, -3%, -3.7%
O=C(Nc1ccon1)c1csc2c1CCCC2
  0.1, -13, 7%, -41, 3%, -8%, 1.2%
CC1CN(C2CCCCC2)c2nc3c(c(=O)[nH]c(=O)n3C)n2C1 (stereo not given)
  4.2, -23, -1%, -5, 2%, 8%, -0.9%
Cn1c2ccc(F)cc2c2nnc(NN)nc21
  1.9, -2, 5%, 2, 11%[15.4 µM], 12%, .
CC(C)(CC(=O)O)CC(=O)N1CCN(c2cc(C(F)(F)F)nc3ccccc23)CC1
  -1.2, -3, -13%, -4, 7%, 3%, -2.3%
CSc1nc(N)nc(SCC(=O)Nc2cccc(F)c2)c1C#N
  2.1, -11, 28µM*, -3, -2%, -16%, -2.7%
Cc1ccc(C)c(NC(=O)CSc2nnc(-c3n[nH]c4ccccc34)o2)c1
  3.8, -24, -27%, 4, 28%, -28%, -13%
OCCC1CN(Cc2ccc(-c3ccco3)cc2)CCN1Cc1ccsc1 (stereo not given)
  3.2, -21, 7%, 11, -20%, -3%, .
CN(C)S(=O)(=O)c1ccc2c(c1)c(=O)c(C(=O)NCCCN1CCCCCC1)cn2C
  3.9, -9, 10%, 0, -93%[inhibitor], -11%, -1.4%
CN(C(=S)NC(=O)c1ccccc1Br)C1CCCCC1
  2.2, -13, -14%, -15, -51%[inhibitor], 4%, -1.6%
COc1cccc(NC(=O)c2cc(-c3ccncc3)nc3c(C)cc(C)cc23)c1
  -2.4, 5, -3%, 11, 10%[15.4 µM], 11%, .
CCOc1ccc(CNc2ccc(N3CCN(Cc4ccccc4)CC3)cc2)cc1
  -1.0, -23, -4%, -8, ?, -9%, .
COCCNC(=O)CN1CCN(C(c2ccccc2)c2ccccc2)CC1
  7.1, -3, -3%, 5, -38%[inhibitor], ?, 0.2%
COCC(C)NC(=O)CSc1ncnc2sc(-c3ccccc3)cc12 (stereo not given)
  ., -19, -6%, -7, -3%[15.4 µM], -3%, -13%
CCN(CC)CCCNC(=O)Cn1cnc2sc(C)c(S(=O)(=O)N3CCC(C)CC3)c2c1=O
  -0.6, -2, 8%, 3, 30%, -17%, .
O=C(CN1C(=O)NC2NC(=O)NC21)N/N=C/c1ccc(F)cc1 (stereo not given)
  1.0, -4, 6%, 18, -6%, 1%, -0.1%
COc1ccccc1CC(=O)Nc1ccc2nc(C)sc2c1
  4.6, -7, 7%, 8, -76%[inhibitor], 23%, -20%
CCCc1cn(S(=O)(=O)c2ccc(OC)cc2OC)nc1N
  2.3, -7, 4%, -2, 9%, 5%, 1.7%
COc1cc2c(cc1OC)CC(=O)N(C)CC2
  -1.4, -17, -8%, 3, 16%, 19%, -0.3%
Cc1ccccc1NC(=O)Cc1nc(-c2c[nH]c(C(=O)N3CCCC3)c2)cs1
  ., 5, -17%, -2, 1%, ., -0.9%
COc1ccc(CNC(=O)CN(Cc2ccccc2)C(=O)c2csnn2)cc1
  1.9, 0, -7%, 2, -11%, 10%, 1.4%

More compounds follow.
The line under a structure holds: Menin MLL FP FL, D2 potentiator, gsp antagonist, TRPV1 PAM, gsp agonist, Sfp PPTase inh, ClpP mod
CCc1c(C(=O)NC(C)C2CCCO2)csc1C (stereo not given)
  ., 3, 1%, 16, 6%, 10%, -0.3%
COc1cccc(C2=CC(c3ccc(C)cc3)n3ncnc3N2)c1 (stereo not given)
  ?, ., ., -7, ., -10%, .
COCCNC(=O)CN(Cc1ccco1)C(=O)CCC(=O)Nc1nccs1
  -5.5, 2, 14%, 2, -7%, 10%, .
COc1ccc(-c2nnn(CC(=O)N(Cc3ccco3)C(C(=O)NCC3CCCO3)c3ccco3)n2)cc1 (stereo not given)
  9.1, 0, -3%, 1, 22%, 3%, -0.7%
CC(=O)C1=C(C)N(Cc2ccccc2)C(=O)N[C@H]1c1cccs1
  -0.5&0.7, -6, 4%, -1, -6%, 9%&23%, 1.9%
